rRNA inh HTS: selective bacterial rRNA inhibition in E. coli. E. coli WT GFP vs humanized-ribosome RFP mutants, fluorescence, 24 h; stronger effect = lower value; DMSO median 0, no signal -100. GFP signal change (wild-type ribosome), % (concentration not given with the values). hit rate 1.6% among 350,000. AID 720706;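 active means significant combined selectivity score with lowered wild-type GFP, culture density cut under 30%, mutant RFP and density less affected; inactive means any of these conditions unmet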; further: one replicate is shown; some compounds called inactive have numbers as strong as hits
rRNA inh HTS OD600: second read-out of rRNA inh HTS, no call of its own (marks repeat the call); OD600 change, %; measured here: OD600 growth;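 optical density of the mix in the first replicate; 0 = DMSO median and -100 = no signal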
rRNA inh HTS RFP: further read-out of rRNA inh HTS, marked with its call; RFP signal change, %; measured here: RFP humanized mutant strains;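 first replicate; 0 = DMSO median and -100 = no signal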
Starred values were filed as active, the others as inactive; & = joins results of further samples. Some of the compounds tested, so the mix of outcomes need not match the whole.

For O=C(C[C@@H]1C[C@H]2c3cc(NC(=O)c4ccc5c(c4)OCO5)ccc3O[C@H]2[C@@H](CO)O1)NC1CCCCC1 the results were rRNA inh HTS -6, rRNA inh HTS OD600 -9 and rRNA inh HTS RFP -0.3.
CC(C)C[C@H]1CN([C@@H](Cc2ccccc2)CN2CCC[C@@H]2CN2C(=O)C(=O)NC[C@@H]2Cc2ccc(O)cc2)C(=O)C(=O)N1CC1CCCCCC1 was read as rRNA inh HTS -16, rRNA inh HTS OD600 -22 and rRNA inh HTS RFP 0.6.
Screening C[C@@H]1CN([C@@H](C)CO)C(=O)c2cc(NC(=O)NC3CCCCC3)ccc2O[C@@H]1CN(C)S(=O)(=O)c1cn(C)cn1 returned rRNA inh HTS 0, rRNA inh HTS OD600 -1 and rRNA inh HTS RFP -0.1.
CC(=O)N1[C@H](C(=O)NCC2CC2)[C@@H](CO)[C@@H]2Cn3c(ccc(-c4ccccc4F)c3=O)[C@@H]21 was read as rRNA inh HTS -1, rRNA inh HTS OD600 6 and rRNA inh HTS RFP -6.2.
`CO[C@@H]1CN(C)C(=O)c2ccc(NC(=O)Nc3cc(F)ccc3F)cc2OC[C@H](C)N(C)C[C@H]1C` gave rRNA inh HTS -3, rRNA inh HTS OD600 -10 and rRNA inh HTS RFP -2.0.
Screening C/C=C/c1ccc([C@@H]2[C@H](CO)N(CC3CCCC3)C23CN(S(=O)(=O)CC)C3)cc1 returned rRNA inh HTS -11, rRNA inh HTS OD600 -18 and rRNA inh HTS RFP 3.7.
C[C@@H]1CN([C@H](C)CO)C(=O)Cc2cc(NC(=O)C3CC3)ccc2O[C@H]1CN(C)C(=O)Nc1ccc(F)cc1 was read as rRNA inh HTS 4, rRNA inh HTS OD600 9 and rRNA inh HTS RFP -1.1.
For CC(=O)N1CCc2cc(NC(=O)C3(C)CCN3Cc3ccccc3Cl)ccc21 (stereo unspecified) the results were rRNA inh HTS -13, rRNA inh HTS OD600 -6 and rRNA inh HTS RFP -6.8.
CC1=C(C(=O)N(C)C)CC(CC(=O)NC2CCCC2)C(=O)N1CCCN1CCCC1=O (stereo unspecified) was read as rRNA inh HTS 6, rRNA inh HTS OD600 4 and rRNA inh HTS RFP -2.3.
Screening C[C@H]1CN([C@@H](C)CO)C(=O)c2cc(C#CC3(O)CCCC3)cnc2O[C@@H]1CN(C)Cc1ccccn1 returned rRNA inh HTS 7, rRNA inh HTS OD600 4 and rRNA inh HTS RFP -1.1.

Fetched one by one from above, four records:
CC(=O)N1[C@H](C(=O)NCC2CC2)[C@@H](CO)[C@@H]2Cn3c(ccc(-c4ccccc4F)c3=O)[C@@H]21 was read as rRNA inh HTS -1, rRNA inh HTS OD600 6 and rRNA inh HTS RFP -6.2.
CC(C)C[C@H]1CN([C@@H](Cc2ccccc2)CN2CCC[C@@H]2CN2C(=O)C(=O)NC[C@@H]2Cc2ccc(O)cc2)C(=O)C(=O)N1CC1CCCCCC1 was read as rRNA inh HTS -16, rRNA inh HTS OD600 -22 and rRNA inh HTS RFP 0.6.
Screening C/C=C/c1ccc([C@@H]2[C@H](CO)N(CC3CCCC3)C23CN(S(=O)(=O)CC)C3)cc1 returned rRNA inh HTS -11, rRNA inh HTS OD600 -18 and rRNA inh HTS RFP 3.7.
Screening C[C@H]1CN([C@@H](C)CO)C(=O)c2cc(C#CC3(O)CCCC3)cnc2O[C@@H]1CN(C)Cc1ccccn1 returned rRNA inh HTS 7, rRNA inh HTS OD600 4 and rRNA inh HTS RFP -1.1.

(listing goes on)
Screening C[C@@H]1CN([C@@H](C)CO)C(=O)CCCn2cc(nn2)CO[C@H]1CN(C)Cc1ccc(C(=O)Nc2ccccc2N)cc1 returned rRNA inh HTS 4, rRNA inh HTS OD600 3 and rRNA inh HTS RFP -1.1.
Screening C[C@H]1CN([C@@H](C)CO)C(=O)c2cc(C#CC3(O)CCCC3)cnc2O[C@H]1CN(C)Cc1cccnc1 returned rRNA inh HTS 3, rRNA inh HTS OD600 4 and rRNA inh HTS RFP -2.5.
COc1ccc(C(=O)Nc2ccc3c(c2)C(=O)N(C)C[C@@H](OC)[C@@H](C)CN(C(C)=O)[C@H](C)CO3)cc1 was read as rRNA inh HTS -1, rRNA inh HTS OD600 -10 and rRNA inh HTS RFP -0.4.
CNC[C@H]1Oc2ncccc2C(=O)N(C)C[C@@H]1C was read as rRNA inh HTS 3, rRNA inh HTS OD600 3 and rRNA inh HTS RFP -0.3.
Screening C[C@@H]1CN([C@H](C)CO)C(=O)c2cccc(NS(=O)(=O)c3cccs3)c2O[C@@H]1CN(C)Cc1ccc(C(F)(F)F)cc1 returned rRNA inh HTS -4, rRNA inh HTS OD600 1 and rRNA inh HTS RFP 0.5.
`C[C@H]1CN([C@@H](C)CO)C(=O)c2cc(NS(=O)(=O)c3cccs3)ccc2O[C@H]1CN(C)Cc1ccc(C(=O)Nc2ccccc2N)cc1` gave rRNA inh HTS 1, rRNA inh HTS OD600 -9 and rRNA inh HTS RFP 0.6.
`O=C(c1cccc(F)c1)N1CC(=O)N2[C@H](CO)[C@H](c3ccc(-c4cccnc4)cc3)[C@H]2C1` gave rRNA inh HTS -1, rRNA inh HTS OD600 -3 and rRNA inh HTS RFP -1.8.
`CCCNC(=O)[C@@H]1[C@@H](CO)[C@@H]2Cn3c(ccc(-c4ccc(F)cc4)c3=O)[C@@H]2N1CC` gave rRNA inh HTS -2, rRNA inh HTS OD600 -6 and rRNA inh HTS RFP 0.8.
`O=C(NC1CCC1)[C@@H]1N[C@@H]2c3ccc(-c4cccc(F)c4)c(=O)n3C[C@@H]2[C@H]1CO` gave rRNA inh HTS -1, rRNA inh HTS OD600 6 and rRNA inh HTS RFP -1.0.
For COc1ccc(S(=O)(=O)Nc2ccc3c(c2)CC(=O)N([C@H](C)CO)C[C@@H](C)[C@@H](CN(C)CC2CC2)O3)cc1 the results were rRNA inh HTS 3, rRNA inh HTS OD600 4 and rRNA inh HTS RFP -0.5.
For CCC(C)C(CO)NCCCn1cnc2c(OC)ncnc21 (stereo unspecified) the results were rRNA inh HTS 5, rRNA inh HTS OD600 10 and rRNA inh HTS RFP -4.2.
O=C(NC(c1ccccc1)c1ccc2ccccc2n1)C1CCN(CCOc2ccc(Cl)cc2Cl)CC1 (stereo unspecified) was read as rRNA inh HTS -49, rRNA inh HTS OD600 -70 and rRNA inh HTS RFP -2.7.
For CCC(=O)Nc1ccc2c(c1)C(=O)N(C)C[C@H](OC)[C@@H](C)CN(C(=O)COC)[C@H](C)CO2 the results were rRNA inh HTS -3, rRNA inh HTS OD600 -8 and rRNA inh HTS RFP -0.9.
O=C(CN1CCOCC1)NCC[C@H]1CC[C@@H](NC(=O)Nc2ccc(Cl)cc2)[C@@H](CO)O1 was read as rRNA inh HTS 3, rRNA inh HTS OD600 0 and rRNA inh HTS RFP -3.0.
Screening Cc1noc(C)c1NC(=O)N(C)C[C@@H]1OCCCC[C@@H](C)Oc2ccc(NC(=O)C3CCCCC3)cc2C(=O)N([C@@H](C)CO)C[C@H]1C returned rRNA inh HTS 3, rRNA inh HTS OD600 2 and rRNA inh HTS RFP 1.2.
`CC(C)NC(=O)Nc1ccc2c(c1)CC(=O)N([C@H](C)CO)C[C@@H](C)[C@H](CN(C)S(=O)(=O)c1cn(C)cn1)O2` gave rRNA inh HTS 1, rRNA inh HTS OD600 5 and rRNA inh HTS RFP -0.2.
Screening CCCC#Cc1ccc2c(c1)O[C@H](CN(C)C(=O)c1ccccn1)[C@H](C)CN([C@@H](C)CO)S2(=O)=O returned rRNA inh HTS -1, rRNA inh HTS OD600 3 and rRNA inh HTS RFP -3.2.
Screening CCCCN1CC(COCc2ccccc2)Oc2cccc(NCc3cc(OC)c(OC)c(OC)c3)c2S1(=O)=O (stereo unspecified) returned rRNA inh HTS 6, rRNA inh HTS OD600 1 and rRNA inh HTS RFP -1.1.
O=C(Nc1ccc2c(c1)OCO2)N1[C@@H]2CNC[C@H]1C2c1ccc(-c2ccncc2)cc1 (stereo partly specified) was read as rRNA inh HTS 6&-10, rRNA inh HTS OD600 22&3 and rRNA inh HTS RFP 1.2&-0.5.
Screening COC(=O)c1cc(=O)nc(NN=Cc2ccc(C)cc2)s1 returned rRNA inh HTS 4, rRNA inh HTS OD600 8 and rRNA inh HTS RFP 0.9.

A draw from above in order of length of the SMILES, lowest first.
For CCC(C)C(CO)NCCCn1cnc2c(OC)ncnc21 (stereo unspecified) the results were rRNA inh HTS 5, rRNA inh HTS OD600 10 and rRNA inh HTS RFP -4.2.
For CCC(=O)Nc1ccc2c(c1)C(=O)N(C)C[C@H](OC)[C@@H](C)CN(C(=O)COC)[C@H](C)CO2 the results were rRNA inh HTS -3, rRNA inh HTS OD600 -8 and rRNA inh HTS RFP -0.9.
`CC(C)NC(=O)Nc1ccc2c(c1)CC(=O)N([C@H](C)CO)C[C@@H](C)[C@H](CN(C)S(=O)(=O)c1cn(C)cn1)O2` gave rRNA inh HTS 1, rRNA inh HTS OD600 5 and rRNA inh HTS RFP -0.2.

Later entries:
For CCC(=O)N1CC2(C1)[C@H](c1ccc(-c3ccc(F)cc3)cc1)[C@H](CO)N2C(=O)CC the results were rRNA inh HTS -4, rRNA inh HTS OD600 -3 and rRNA inh HTS RFP 2.1.
O=C([C@@H]1[C@@H](CO)[C@@H]2Cn3c(cccc3=O)[C@@H]2N1Cc1ccccc1)N1CCCCC1 was read as rRNA inh HTS 1, rRNA inh HTS OD600 3 and rRNA inh HTS RFP 2.4.
O=C(C[C@H]1CC[C@H]2[C@@H](COC[C@@H](O)CN2Cc2ccc(Cl)cc2)O1)NCCc1ccccc1 was read as rRNA inh HTS -7, rRNA inh HTS OD600 -17 and rRNA inh HTS RFP 2.3.
Screening Cc1ccc(S(=O)(=O)Nc2cccc3c2O[C@H](CN(C)C(=O)NC(C)C)[C@@H](C)CN([C@H](C)CO)C3=O)cc1 returned rRNA inh HTS -1, rRNA inh HTS OD600 -5 and rRNA inh HTS RFP -3.6.
For CS(=O)(=O)N1CC(=O)N2[C@@H](CO)[C@H](c3ccc(C#Cc4ccccc4)cc3)[C@@H]2C1 the results were rRNA inh HTS 1, rRNA inh HTS OD600 12 and rRNA inh HTS RFP 1.0.
COc1cc(C=CC(=O)N2CCN(CC(=O)N3CCCC3)CC2)cc(OC)c1OC was read as rRNA inh HTS 10, rRNA inh HTS OD600 13 and rRNA inh HTS RFP -1.7.
For COc1cccc(-c2cn(CC[C@H]3CC[C@H](NS(=O)(=O)Cc4ccccc4)[C@H](CO)O3)nn2)c1 the results were rRNA inh HTS -7, rRNA inh HTS OD600 -11 and rRNA inh HTS RFP 2.0.
`COc1ccc(NC(=O)N[C@H]2CC[C@H](CCNS(=O)(=O)c3ccccc3F)O[C@@H]2CO)cc1` gave rRNA inh HTS -4, rRNA inh HTS OD600 -3 and rRNA inh HTS RFP 1.8.
For C[C@@H]1CN([C@H](C)CO)C(=O)c2cc(NC(=O)C3CCCCC3)ccc2O[C@@H](C)CCCCO[C@@H]1CN(C)S(=O)(=O)c1cccs1 the results were rRNA inh HTS -1, rRNA inh HTS OD600 -9 and rRNA inh HTS RFP 0.6.
For OCC1OC(Nc2ccccc2C=NO)C(O)C1O (stereo unspecified) the results were rRNA inh HTS 10, rRNA inh HTS OD600 -2 and rRNA inh HTS RFP 2.9.
For C[C@H]1CN([C@@H](C)CO)C(=O)c2cccc(NC(=O)c3cnccn3)c2O[C@@H]1CN(C)Cc1ccc(C(F)(F)F)cc1 the results were rRNA inh HTS -5, rRNA inh HTS OD600 -11 and rRNA inh HTS RFP 0.3.
CCNC(=O)[C@@H]1[C@@H](CO)[C@@H]2Cn3c(ccc(-c4ccccc4)c3=O)[C@H]1N2Cc1cccnc1 was read as rRNA inh HTS 3, rRNA inh HTS OD600 5 and rRNA inh HTS RFP -3.6.
For C[C@H]1CN([C@@H](C)CO)C(=O)c2cc(C#Cc3ccccc3F)cnc2O[C@@H]1CN(C)C the results were rRNA inh HTS 11, rRNA inh HTS OD600 5 and rRNA inh HTS RFP -2.3.
`COc1ccc2c3c(n(C)c2c1)[C@@H](CO)N(CC1CCCCC1)CC31CCN(C(C)=O)CC1` gave rRNA inh HTS 6, rRNA inh HTS OD600 -11 and rRNA inh HTS RFP 1.3.
Screening COc1ccc(C(NC(=O)C2CCN(Cc3ccc(Oc4ccccc4)cc3)CC2)c2ccccc2C)cn1 (stereo unspecified) returned rRNA inh HTS -22, rRNA inh HTS OD600 -43 and rRNA inh HTS RFP 31.
Screening Cc1ccc(S(=O)(=O)Nc2ccc3c(c2)C(=O)N([C@H](C)CO)C[C@H](C)[C@H](CN(C)CC2CC2)OCCCC[C@@H](C)O3)cc1 returned rRNA inh HTS 6, rRNA inh HTS OD600 7 and rRNA inh HTS RFP -0.7.
Screening CCS(=O)(=O)N1CCCCN2[C@@H](CO)[C@@H](c3ccc(C#CC(C)(C)O)cc3)[C@@H]2C1 returned rRNA inh HTS 4, rRNA inh HTS OD600 14 and rRNA inh HTS RFP -3.6.
Screening C/C=C/c1ccc2c(c1)O[C@H](CN(C)C(=O)Cc1cccnc1)[C@H](C)CN([C@@H](C)CO)S2(=O)=O returned rRNA inh HTS 2, rRNA inh HTS OD600 5 and rRNA inh HTS RFP -5.4.
`CCNC(=O)[C@H]1[C@H](CO)[C@H]2Cn3c(ccc(-c4ccccc4OC)c3=O)[C@H]2N1S(C)(=O)=O` gave rRNA inh HTS 2, rRNA inh HTS OD600 3 and rRNA inh HTS RFP -2.6.
CN1C(=O)c2cc(NC(=O)C3CCOCC3)ccc2OC[C@H]2O[C@@H](CC(=O)NCc3ccccc3F)CC[C@@H]21 was read as rRNA inh HTS 4, rRNA inh HTS OD600 6 and rRNA inh HTS RFP -2.9.
For CC(C)C(=O)Nc1ccc2c(c1)C(=O)N(C)[C@@H]1CC[C@H](CC(=O)O)O[C@@H]1CO2 the results were rRNA inh HTS 2, rRNA inh HTS OD600 -7 and rRNA inh HTS RFP -1.6.
Cc1ccc(S(=O)(=O)Nc2ccc3c(c2)CC(=O)N([C@@H](C)CO)C[C@H](C)[C@@H](CN(C)Cc2ccncc2)O3)cc1 was read as rRNA inh HTS -4, rRNA inh HTS OD600 -3 and rRNA inh HTS RFP 1.3.
